Ecoli growth – E. coli growth inhibition, primary screen, OD600 | Escherichia coli growth, 23 h; active compounds read low | OD600 absorbance (no concentration beside the values) | 330,000 compounds, 0.21% hits;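 active = OD600 absorbance below the run mean of sample wells minus 3.6 SD, in any replicate, cut at about 0.56 in these data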;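 also: stock transfer was 300 nL into about 60 µL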
Ecoli rRNA inh – reduced GFP signal of wild-type E. coli, primary screen, bacterial rRNA inhibitor project, GFP/RFP fluorescence, OD600, single point; GFP signal change (wild-type ribosome), % (no concentration beside the values); E. coli WT GFP vs humanized-ribosome RFP mutants, 24 h; active compounds read low; DMSO median 0, no signal -100; 350,000 compounds, 1.6% hits;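 active = significant combined selectivity score with lowered wild-type GFP, culture density cut under 30%, mutant RFP and density less affected; inactive = any of these conditions unmet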; also: one replicate is shown; some compounds called inactive have numbers as strong as hits
FGF22 binding – binders of human FGF22 protein, primary screen, FGF22 synaptogenesis inhibitor project, biophysical, thermal shift, single point | 340,000 compounds, 1.5% hits | AID 651658, 2012 | recombinant FGF22 thermal shift, SYPRO orange fluorescence; percent of sucrose octasulfate shift, DMSO zero | calls only at 9.99 µM;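 active = melting point raised past a set limit in the mean and every replicate; inconclusive = no clear call; three in four hits are not shown here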
Target sequence (Q9HCT0 whole entry, looked up): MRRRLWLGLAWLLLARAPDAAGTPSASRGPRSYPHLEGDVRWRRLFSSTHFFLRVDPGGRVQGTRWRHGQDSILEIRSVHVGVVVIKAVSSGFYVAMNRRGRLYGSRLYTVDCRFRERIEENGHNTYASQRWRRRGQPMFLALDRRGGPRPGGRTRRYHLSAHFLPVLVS
Beta2AR agonist – beta2AR agonists driving receptor internalization, primary screen, cell-based, FAP fluorogen, flow cytometry; response, % (no concentration beside the values); Am2.2-beta2AR cells; reference of the scale not given here; Beta-2 adrenergic receptor (Homo sapiens), P07550; 340,000 compounds, 0.43% hits;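 active = response above a set limit, near 3 SD of response in nonfluorescent compounds, cut at about 42% in these data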;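 also: stock transfer was 100 nL into about 11 µL; a reference agonist was the positive control; negative values mostly stem from fluorescent compounds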
Target sequence (P07550 whole entry, looked up): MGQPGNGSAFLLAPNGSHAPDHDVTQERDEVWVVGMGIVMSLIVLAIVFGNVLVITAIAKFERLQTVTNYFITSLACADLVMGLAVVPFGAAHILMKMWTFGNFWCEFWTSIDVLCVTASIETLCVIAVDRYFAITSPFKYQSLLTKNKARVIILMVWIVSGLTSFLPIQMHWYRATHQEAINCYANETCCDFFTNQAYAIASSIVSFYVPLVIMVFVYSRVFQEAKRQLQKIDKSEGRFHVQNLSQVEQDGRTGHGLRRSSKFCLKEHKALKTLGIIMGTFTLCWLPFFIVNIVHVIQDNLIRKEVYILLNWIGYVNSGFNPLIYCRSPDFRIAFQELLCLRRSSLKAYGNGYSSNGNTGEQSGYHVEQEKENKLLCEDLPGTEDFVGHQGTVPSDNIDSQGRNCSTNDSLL
HNF4A DNA FP – change in binding of human HNF4A to DNA, primary screen, biochemical, fluorescence polarization, FITC-DNA; Hepatocyte nuclear factor 4-alpha (Homo sapiens), P41235; 1 h; activity change, % at 10 µM; 360,000 compounds, 0.3% hits; AID 1224865, 2016; in the data active = activity change above about 30%, passing the limit was not always enough;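 also: controls were the assay level and a saturating level of protein; the project sought stronger binding though the title names inhibitors; some compounds called inactive have numbers as strong as hits; positive values seem to mean higher polarization but the record does not say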
UCH37 DUB inh – inhibitors of human UCH37 deubiquitinase, primary screen, biochemical, Ub-AMC cleavage, fluorescence | Ubiquitin carboxyl-terminal hydrolase isozyme L5 (Homo sapiens), Q9Y5K5 | inhibition, % (no concentration beside the values) | 330,000 compounds, 0.33% hits | purified proteasome/UCH37;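 active = mean of two replicates above 20%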;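 also: 0% = compound-free wells with enzyme and 100% = wells lacking proteasome; stock transfer was 100 nL into about 20 µL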
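Material: Human UCH37 enzyme supplied as purified proteasome complex | Schedule: 30 min preincubation with enzyme, 25 min cleavage at room temperature | Detection: AMC fluorescence 355/460 nm | Measure: % inhibition of Ub-AMC cleavage fluorescence | Controls: Wells without proteasome as full block, compound-free enzyme plus substrate as uninhibited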
ALR H2O2 inh – inhibitors of human ALR sulfhydryl oxidase, primary screen, biochemical, H2O2 detection, HRP-luminol luminescence, single point; FAD-linked sulfhydryl oxidase ALR (Homo sapiens), P55789; purified ALR, DTT oxidation; inhibition, % (no concentration beside the values); 290,000 compounds, 3.8% hits; AID 485317, 2010;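 active = mean and each replicate at 75% or more; inconclusive = only one of the two met; inactive = neither met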;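 also: stock transfer was 7.5 nL into about 7.5 µL; 0% = neutral wells and 100% = wells with inactivated enzyme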
Target sequence (P55789 whole entry, looked up): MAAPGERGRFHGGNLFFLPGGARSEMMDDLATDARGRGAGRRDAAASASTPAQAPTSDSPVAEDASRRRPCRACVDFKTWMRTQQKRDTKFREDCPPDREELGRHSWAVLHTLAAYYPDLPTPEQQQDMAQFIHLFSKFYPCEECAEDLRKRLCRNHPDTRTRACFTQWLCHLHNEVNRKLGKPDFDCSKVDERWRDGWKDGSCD
Ecoli rRNA inh OD600 – recorded beside Ecoli rRNA inh, whose call it bears; OD600 change, %; measured here: OD600 growth;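 optical density of the mix in the first replicate; 0 = DMSO median and -100 = no signal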
Ecoli rRNA inh RFP – second read-out of Ecoli rRNA inh, no call of its own (marks repeat the call); RFP signal change, %; measured here: RFP humanized mutant strains;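 first replicate; 0 = DMSO median and -100 = no signal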
* hit, by the source's call; i = inactive; ? = inconclusive; · = no result given. Not all compounds are listed; the hit share may differ from the screen's.

smiles,Ecoli growth,Ecoli rRNA inh,Ecoli rRNA inh OD600,Ecoli rRNA inh RFP,FGF22 binding,Beta2AR agonist,HNF4A DNA FP,UCH37 DUB inh,ALR H2O2 inh
CN(C)CCCn1c(SCc2ccc(Cl)cc2)nnc1-c1ccncc1,0.67,5,5,-1.2,i,-4,2.2,3.8,0
CCNC(=O)Nc1nc2ccccc2s1,0.71,3,4,4.7,i,-9,0.8,2.6,0
O=C(NCCN1CCCC1=O)C1CCC(=O)N(CCc2ccc(Cl)cc2)C1 (configuration not stated),0.73,12,10,2.7,i,6,0.6,6.1,-7
CC(=O)C1CCC2C3C=CC4=CC(=O)CCC4(C)C3CCC12C (configuration not stated),·,-40,-57,-11,i,·,0.3,·,·
COc1cccc(C(=O)NCc2cccnc2)c1,0.67,4,3,-3.0,i,-4,-2.2,0.2,-1
COC(=O)C(C)(N)Cc1ccc(O)cc1 (configuration not stated),0.66,·,·,·,i,-1,-0.1,1.4,-12
Cc1c(C(=O)O)sc2ncn(C)c(=O)c12,0.69,·,·,·,·,-5,-0.2,0.3,·
Clc1ccc(-c2nnc(NCc3ccccc3)c3ccccc23)cc1,0.69,·,·,·,·,10,4.3,0.0,18
C=CCNc1nc(-c2ccccc2)nc(-n2ccnc2)n1,0.68,·,·,·,·,10,0.6,-1.3,-6
O=C(CNC(=S)N(Cc1ccc(F)cc1)C1CCCCC1)NCCN1CCOCC1,0.72,11,12,1.4,·,1,-0.5,-1.6,-4
COc1ccc(C(O)c2nc(-c3cc(F)cc(Cl)c3)cs2)cc1 (configuration not stated),·,-61,-79,-21,i,·,1.2,·,·
COc1ccc(NC(=O)CSc2nnc(Cn3cnc4ccccc43)n2C)cc1,0.74,·,·,·,·,-1,0.1,-4.5,24
CCC(=O)N/C(=N\OCc1ccc(F)cc1)c1nonc1NC(=O)CC,·,·,·,·,·,-2,-3.6,·,-7
COCCn1nnnc1C(c1cc2cc(C)ccc2[nH]c1=O)N1CCCCCC1 (configuration not stated),0.64,·,·,·,·,11,-2.7,-6.5,-14
CC1CN(C(=O)/C=C/c2ccccc2Cl)CC(C)O1 (configuration not stated),0.65,4,7,1.4,i,-1,-1.0,5.6,-10
C/C(=N\NC(=O)c1ccc2c(c1)OCO2)c1ccc(C(=O)O)s1,·,0,7,-1.7,i,0,-2.0,·,-7
O=C1OCCC/C1=C\c1ccc2c(c1)OCO2,·,3,15,0.5,i,-1,3.5,·,-16
CCOC(=O)[C@H]1[C@H]2COc3ccccc3[C@@H]2N2C(=O)CN(CC3CCCO3)C(=O)[C@@]12C (some centres not stated),·,8,4,0.5,i,-1,-1.2,1.2,-2
CC(C)(C)C(=O)Nc1cccc(-c2nc3ccccc3c(=O)o2)c1,0.68,-2,-6,-2.2,i,2,3.3,-7.2,3
O=C(Nc1ccc(F)c(Cl)c1)c1csc([C@H]2C[C@H](O)[C@@H](CO)O2)n1,·,-14,-4,-2.8,i,·,-2.5,·,·
O=C(Nc1ccc(S(=O)(=O)Nc2cnc3ccccc3n2)cc1)c1ccccc1Br,0.68,17,-13,1.2,i,-1,-3.2,-14,-6
CCN(CC)CCN1C(=O)C(O)=C(C(=O)c2cccs2)C1c1ccccn1 (configuration not stated),0.74,·,·,·,·,-3,0.3,10,-8
CC(Sc1ccccc1)C(=O)N1CCN(S(=O)(=O)c2cccc(Br)c2)CC1 (configuration not stated),0.66,-1,-32,-1.2,i,7,-0.4,1.0,-2
CCCCn1c(N)c(N(CCOC)C(=O)CSCc2c(C)noc2C)c(=O)[nH]c1=O,0.71,18,16,3.2,i,4,0.6,-2.8,-6
O=C(NC1CCc2ccccc21)C12CN(Cc3ccccc3)CC1C(c1cccc([N+](=O)[O-])c1)=NO2 (configuration not stated),0.7,14,14,0.6,i,-4,3.7,-1.3,-2
CC(=O)Nc1ccc(S(=O)(=O)NNC(=O)c2ccc([N+](=O)[O-])cc2)cc1,0.72,11,16,9.1,i,4,1.1,2.0,72
O=C1C2C3C=CC(CC3)C2C(=O)N1/N=C/c1ccc(O)c(O)c1 (configuration not stated),·,·,·,·,i,3,-1.9,·,·
Cc1oc2ccc(O)cc2c1C(=O)OC(C)C,0.65,·,·,·,·,4,2.9,-2.0,-5
CCOc1cc(/C=C2\SC(=O)N=C2N)ccc1O,0.69,-12,-22,-3.4,i,2,12,12,·
Cc1cc(Cl)ccc1NC(=S)N1CCN(C(=O)c2ccco2)CC1,0.7,-37*,1.2*,-5.0*,i,-5,-1.9,1.4,-2

Next compounds:
smiles,Ecoli growth,Ecoli rRNA inh,Ecoli rRNA inh OD600,Ecoli rRNA inh RFP,FGF22 binding,Beta2AR agonist,HNF4A DNA FP,UCH37 DUB inh,ALR H2O2 inh
CCC(=O)Nc1ccc(NC(=O)CSc2nnnn2CC)cc1C,0.73,1,10,-4.1,·,-7,-0.1,5.6,-5
C/C(=N\Nc1cc(N2CCOCC2)ncn1)c1ccc(O)cc1,·,-17,-22,-4.2,i,6,4.2,·,97*
Fc1ccccc1-c1nc(-c2ccccc2)no1,0.67,·,·,·,·,-11,-0.4,2.8,-14
CCCCCC(=O)N1C[C@H](O)[C@@H](n2cc(-c3ccc(F)cc3)nn2)C[C@@H]1c1ccc(Cl)cc1,·,-12,-10,1.8,i,·,-5.5,·,·
O=C(CN1CCOCC1)Nc1ccc2c(c1)OCCO2,0.69,15,10,-1.4,i,-2,1.6,3.0,·
COc1cccc(-c2cc(C(F)(F)F)nc(N3CCC(C)CC3)n2)c1,0.72,·,·,·,·,6,-1.8,-42,-9
O=C(CCNC(=O)Cn1ccc2ccccc2c1=O)NCc1ccccn1,0.68,10,-1,-0.2,i,-1,-5.5,-2.9,-20
Cc1cccnc1NC(=O)c1ccc(S(=O)(=O)N2CCC(C)CC2)cc1,0.65,-1,-4,-0.2,i,9,-2.2,1.5,0
CC(C)Cn1c(SCc2nc3ccccc3c(=O)[nH]2)nc2ccccc2c1=O,0.76,·,·,·,·,-6,1.8,-1.0,-11
CCCS(=O)(=O)NC(=O)C1(C)CCN(C(=O)c2cccnc2Oc2ccccc2)C1 (configuration not stated),·,4,13,0.7,i,·,-1.4,·,·
Cc1cc(C)cc(-c2nnc(SCC(=O)NCc3cccs3)o2)c1,0.67,·,·,·,·,7,-3.5,2.3,-7
O=C(O)/C(=C1/OC(=O)c2ccccc21)c1ccccc1,·,·,·,·,·,1,1.6,-3.7,-4
O=C1c2ccccc2C(=O)N1CCCC(=O)N1CCc2ccccc21,0.73,·,·,·,·,4,0.0,0.7,·
COc1cc(OC)c(C(=O)Nc2ccccc2-c2ccccc2)cc1OC,0.7,·,·,·,·,-5,-0.8,3.8,-2
CN1CCN(c2ccc(-c3cc(NC=O)c4ncc(-c5ccc(F)c(Cl)c5)n4c3)cc2)CC1,·,-29,-50,-6.8,i,·,18,·,·
O=C(CCNC(=O)C1CCN(S(=O)(=O)c2ccccc2)CC1)NCc1ccncc1,0.7,8,10,-1.1,i,1,-2.4,0.7,·
COc1cccc(Cn2c(=O)ccc3ccccc32)c1,0.67,-5,-5,1.1,i,-6,0.9,5.5,-14
CCc1ccc(OCC(=O)NNC(=O)Cc2cccs2)cc1,0.64,·,·,·,·,-4,0.1,1.7,-13
S=C(Nc1ccccc1)N1CCN(c2ccc(N3CCOCC3)nn2)CC1,0.7,8,-2,5.0,i,0,-2.3,-52,-18
CC(C)CC(C(=O)NC1CCCC1)N(Cc1ccc2c(c1)OCO2)C(=O)c1snc(C(N)=O)c1N (configuration not stated),0.65,11,9,2.3,i,5,-1.4,-10,-10
Cc1cccc(NC(=O)CSc2nnc([C@H](C)NC(=O)OC(C)(C)C)o2)c1C,0.7,7,1,2.7,i,-2,0.2,5.8,13
Cc1cc(C)c(NC(=O)c2cccs2)c(C)c1NC(=O)c1cccs1,0.69,-2,3,-0.7,i,8,0.2,5.3,-20
O=C(NC1CC(=O)N(c2ccccc2)C1)C(=O)c1c[nH]c2ccccc12 (configuration not stated),0.64,1,-2,-0.5,i,2,-0.6,7.5,-1
Cc1c(Br)cc(C(=O)N2CCCC2)c(C)c1C,0.67,·,·,·,·,6,1.8,0.2,-11
CCCCOC(=O)c1cc(Cl)c(O)c(OC)c1,·,-11,-18,-3.7,i,6,2.3,·,18
COc1ccc(C(=O)NNC(=O)CSc2nc3c(c(=O)n(C)c(=O)n3C)n2C)cc1,0.72,11,11,-7.6,i,-6,1.5,1.3,4
O=C(NCc1cccs1)C1CCCN(C(=O)Nc2ccccc2)C1 (configuration not stated),0.69,2,2,0.3,·,-13,-0.7,3.5,-1
O=C(CCNS(=O)(=O)c1cccc2nsnc12)N1CCc2ccccc21,0.77,·,·,·,·,0,-1.3,3.3,-22
CCn1c(SCC(=O)Nc2ccccc2F)nc2c(c1=O)SC(C)C2 (configuration not stated),0.77,·,·,·,·,-6,2.2,7.1,-10
COc1ccc(OCC(O)CN2C(=O)NC(C)(C)C2=O)cc1 (configuration not stated),0.65,·,·,·,·,-8,2.9,0.6,0

Following part
smiles,Ecoli growth,Ecoli rRNA inh,Ecoli rRNA inh OD600,Ecoli rRNA inh RFP,FGF22 binding,Beta2AR agonist,HNF4A DNA FP,UCH37 DUB inh,ALR H2O2 inh
CC(=O)Nc1ccc(OC(=O)c2c(-c3ccccc3Cl)noc2C)cc1,0.68,·,·,·,·,-8,3.3,-2.8,-1
O=C1OCCC1Sc1ncnc2sc3c(c12)CCC3 (configuration not stated),0.73,·,·,·,·,-3,-1.0,2.3,7
CC(C)C[C@@H](CN=[N+]=[N-])N1CCN(CC(C)C)CCC1=O,·,13,8,-0.4,i,4,-1.5,-1.0,-3
O=C(CSc1ncn[nH]1)Nc1nsc(-c2ccccc2)n1,0.69,-6,4,-1.9,i,1,-0.9,1.1,0
COc1ccc(/C=N/n2c(-c3cccs3)n[nH]c2=S)cc1,·,·,·,·,·,1,2.5,·,?
O=C(CSc1nnc2ccc(-c3ccncc3)nn12)N1CCCCC1,0.72,3,-2,0.3,i,-7,0.6,3.0,-9
CN(C(=O)c1ccccc1Cl)c1ccccc1C(=O)NCc1ccccc1,0.7,-1,1,2.4,i,0,-1.4,-0.6,-7
O=C(CCN1C(=O)c2ccc([N+](=O)[O-])cc2C1=O)Nc1nccs1,0.65,18,15,2.6,i,2,3.1,3.9,-7
Cc1ccc(NC(=O)CN(c2ccc(Cl)cc2)S(=O)(=O)c2cc([N+](=O)[O-])ccc2Cl)c(C)c1,0.7,6,17,-0.7,i,4,0.6,3.7,-2
CC(=O)Cc1nsc(NC(=O)c2c(-c3ccccc3Cl)noc2C)n1,0.71,·,·,·,·,1,4.5,3.0,-1
CC(C)Cc1ccc(-c2cc(=O)[nH][nH]2)cc1,0.63,8,25,1.1,i,6,-3.9,3.2,-5

Source: PubChem BioAssay (several laboratories)
